Assay outcomes: PubChem, National Center for Advancing Translational Sciences (NCATS)
Vaccinia mCherry: inhibitors of vaccinia virus infection (mCherry reporter signal) | Vaccinia virus mCherry reporter infection, fluorescence; about a quarter of the inactives have no number | Potency, µM (series often up to 36.5 µM), for the others: at the top dose activity change, negative = inhibition, usual class: inhibitors | 310,000 tested, 0.63% active; active = well fitted inhibition curve with a large enough effect; inconclusive = small, poorly fitted or top-dose-only effect; inactive = no such curve, though single readings can be large or run the other way; tested in A549 cells; also: nearly all actives have a fitted effect of over 35% in size; inactives centre near -10
Vaccinia Venus: vaccinia inhibition (Venus reporter) | Vaccinia virus Venus reporter expression, fluorescence | Potency, µM (top dose mostly 36.5 µM), without a hit: at the highest dose activity change, negative = inhibition, actives largely listed as inhibitors | 330,000 tested, 0.46% active | AID 720580; active means well fitted inhibition curve with a large enough effect; inconclusive means small, poorly fitted or top-dose-only effect; inactive means no such curve, though single readings can be large or run the other way; tested in A549 cells; also: nearly all actives have a fitted effect of over 30% in size; inactives centre near -10
* hit, by the source's call; [ ] = dose if it differs, or a comment. % is scaled to controls: 0 for no effect and ±100 for the full control effect; potency is read from the fitted curve at half-maximal effect.

Screening O=C(CN1CCC(n2nnc3cc(F)ccc32)CC1)NCCc1nc2ccccc2[nH]1 returned Vaccinia mCherry -12% and Vaccinia Venus -15%.
`CCOc1ccc(N=C2NC(=O)/C(=C/C(=O)OC)S2)cc1` gave Vaccinia mCherry -20% and Vaccinia Venus -20%.
Screening O=C(O)c1cc2c(=O)c3ccccc3oc2nc1C(F)(F)F returned Vaccinia mCherry inactive and Vaccinia Venus -9%.
COc1ccc(NC(=O)CSc2nc(-c3ccco3)nc3cc(=O)[nH]n23)cc1 was read as Vaccinia mCherry -3% and Vaccinia Venus 2%.
Screening Cc1ccc(S(=O)(=O)N(C)c2cc(S(=O)(=O)Nc3ccncc3)c(C)cc2C)cc1 returned Vaccinia mCherry inactive and Vaccinia Venus -10%.
For CCCCCCCCNc1ncnc2ccccc12 the results were Vaccinia mCherry inconclusive and Vaccinia Venus inconclusive.
`COc1ccc(C(=O)O)cc1NCc1ccc(C)s1` gave Vaccinia mCherry inactive and Vaccinia Venus 2%.
For CCOC(=O)N1CCN(C(=O)c2ccc(Cl)nc2)CC1 the results were Vaccinia mCherry -12% and Vaccinia Venus 10%.
For O=C(COC(=O)c1ccc(Cl)nc1)NCCc1ccc(Cl)cc1 the results were Vaccinia mCherry -11% and Vaccinia Venus -12%.
For Nc1cc(N)cc(-c2nc3ccccc3[nH]2)c1 the results were Vaccinia Venus 3%.
For CCCOc1ccc(C2c3c(-c4ccccc4O)n[nH]c3C(=O)N2Cc2cccnc2)cc1 (configuration not stated) the results were Vaccinia mCherry -14% and Vaccinia Venus -19%.
Screening CCc1nnc(NC(=O)CSc2ccc(Cl)cc2)s1 returned Vaccinia mCherry inactive and Vaccinia Venus 1%.

In the list so far, three contain a Cl atom.
For CCOC(=O)N1CCN(C(=O)c2ccc(Cl)nc2)CC1 the results were Vaccinia mCherry -12% and Vaccinia Venus 10%.
For O=C(COC(=O)c1ccc(Cl)nc1)NCCc1ccc(Cl)cc1 the results were Vaccinia mCherry -11% and Vaccinia Venus -12%.
Screening CCc1nnc(NC(=O)CSc2ccc(Cl)cc2)s1 returned Vaccinia mCherry inactive and Vaccinia Venus 1%.

In the list so far, two have an aryl thioether with sulfur outside any ring.
COc1ccc(NC(=O)CSc2nc(-c3ccco3)nc3cc(=O)[nH]n23)cc1 was read as Vaccinia mCherry -3% and Vaccinia Venus 2%.
Screening CCc1nnc(NC(=O)CSc2ccc(Cl)cc2)s1 returned Vaccinia mCherry inactive and Vaccinia Venus 1%.

New compounds follow
COCCn1c(SCC(=O)Nc2ccccc2C(F)(F)F)nc2ccccc2c1=O was read as Vaccinia mCherry -11% and Vaccinia Venus 1%.
CC(C)CC(=O)Nc1nnc(SCC(=O)NCC2CCCO2)s1 (configuration not stated) was read as Vaccinia mCherry -14% and Vaccinia Venus -11%.
`Cc1ccc(-n2ncc(C(=O)N3CCN(c4cccc(C)c4)C(C)C3)c2C2CCN(C(=O)OC(C)(C)C)CC2)cc1` (configuration not stated) gave Vaccinia mCherry -27% and Vaccinia Venus inconclusive.
`COc1ccc(O)c(C(=O)c2cc(C#N)c(=O)n(CC3CCCO3)c2)c1` (configuration not stated) gave Vaccinia Venus -13%.
`O=C(O)c1nccnc1C(=O)N1CCN(c2ccccc2)CC1` gave Vaccinia mCherry -15% and Vaccinia Venus -12%.
CCOC(=O)C1CCCN(C(=O)Cn2cccc2C(=O)c2ccccc2)C1 (configuration not stated) was read as Vaccinia mCherry inactive and Vaccinia Venus -16%.
`COc1ccccc1CNC(=O)c1cc(-c2ccccc2C)n(CC2CC(c3cccc([N+](=O)[O-])c3)=NO2)n1` (configuration not stated) gave Vaccinia mCherry -8% and Vaccinia Venus -17%.
COc1cc(NS(=O)(=O)c2ccc3c(c2)oc(=O)n3C)cc(OC)c1OC was read as Vaccinia mCherry inconclusive and Vaccinia Venus -26%.
`Cc1oc2c(c1C(=O)NCc1ccccc1)CCCC2` gave Vaccinia mCherry -5% and Vaccinia Venus 5%.
Screening C=CCOc1ccc(/C=C/C(=O)OCC(=O)N(C)CC(=O)Nc2ccccc2Cl)cc1 returned Vaccinia mCherry -21% and Vaccinia Venus -18%.
`Cc1c(C(=O)Nc2ccc(S(=O)(=O)N(C)C3CCN(C)CC3)cc2)oc2c(Cl)cccc12` gave Vaccinia mCherry inconclusive and Vaccinia Venus inconclusive.
For CC(C)(C)OC(=O)N1CCCN(C(c2ccnc3ccccc23)c2nnnn2-c2ccc3c(c2)OCCO3)CC1 (configuration not stated) the results were Vaccinia mCherry -7% and Vaccinia Venus 1%.
Screening CCCCCCCSc1nc(N)cc(=O)[nH]1 returned Vaccinia mCherry 3% and Vaccinia Venus 3%.
COCCn1nnnc1C(c1cccc(C(F)(F)F)c1)N1CCN(Cc2ccccc2)CC1 (configuration not stated) was read as Vaccinia Venus -13%.
`CCN1CCN(c2ccc(S(=O)(=O)N3CCCCC3)cc2NC(=O)c2ccc(C)o2)CC1` gave Vaccinia mCherry -11% and Vaccinia Venus -19%.
`O=C(Nc1ccc(N2CCOCC2)cc1)c1ccc(Cl)cc1N1CCCC1=O` gave Vaccinia mCherry -15% and Vaccinia Venus -6%.
`CCCSc1oc(-c2cccs2)nc1S(=O)(=O)c1ccc(C)cc1` gave Vaccinia mCherry -14% and Vaccinia Venus -20%.
For O=c1[nH]c2ccccc2nc1/C=C/c1ccc(Cl)cc1 the results were Vaccinia mCherry -7% and Vaccinia Venus 1%.
Screening O=C(CCCOc1ccc(Cl)cc1Cl)NCCCO returned Vaccinia Venus -36%.
Screening Cc1cc(C)cc(NC(=S)N2CCN(CCO)CC2)c1 returned Vaccinia mCherry -8% and Vaccinia Venus -6%.
For C1CN(c2nc(N3CCOCC3)nc(N3CCOCC3)n2)CCO1 the results were Vaccinia mCherry inactive and Vaccinia Venus -6%.
COC(=O)c1ccc(COc2ccccc2/C=C(\C#N)C(=O)Nc2c(C)cc(C)cc2C)cc1 was read as Vaccinia mCherry -26% and Vaccinia Venus -24%.
`CC(=O)O[C@@H]1[C@@H](O)[C@@H](O)[C@H](Oc2c(-c3ccc(O)cc3)oc3c(CC=C(C)C)c(O)cc(O)c3c2=O)O[C@H]1C` gave Vaccinia mCherry -3% and Vaccinia Venus -4%.
Screening CC(=O)Oc1ccccc1Cn1c(C)c(C(=O)NCc2cccc(Cl)c2)sc1=O returned Vaccinia mCherry inactive and Vaccinia Venus 6%.
Screening CC/C(Cc1ccccc1)=N/NC(=O)CNC(=O)c1ccc(Cl)cc1Cl returned Vaccinia mCherry -8% and Vaccinia Venus -2%.
For CCOc1ccc(CCN2C(=S)N([C@@H](CC(C)C)CN3CCCC3CN3C(=S)NC[C@@H]3CC(C)C)C[C@@H]2Cc2ccccc2)cc1 (some centres not stated) the results were Vaccinia mCherry inactive and Vaccinia Venus -18%.
Screening CCOc1ccc(-c2nc(N)ncc2-c2ccc(OC)cc2)c(O)c1 returned Vaccinia mCherry inconclusive and Vaccinia Venus inconclusive.
`COc1ccccc1NC(=O)Cc1ccc(-c2ccccc2)cc1` gave Vaccinia mCherry -33% and Vaccinia Venus 16%.
Cc1ccc(Cc2nc3ccccc3nc2SCC(=O)NCCc2ccccc2)cc1 was read as Vaccinia mCherry -6% and Vaccinia Venus -9%.
Screening COc1ccc(-c2ccc3sc4ccccc4c(=O)c3c2)cn1 returned Vaccinia mCherry -15% and Vaccinia Venus -25%.
COC(=O)c1ccccc1NC(=O)c1cc(OC)cc(OC)c1 was read as Vaccinia Venus -23%.
`Cc1ccccc1NC(=O)c1ccc(Nc2c([N+](=O)[O-])cc([N+](=O)[O-])c3ccccc23)cc1` gave Vaccinia mCherry inconclusive and Vaccinia Venus -25%.
`COc1cc(Br)cc(C2C3=C(CCCC3=O)N(c3ccc(F)cc3)C3=C2C(=O)CCC3)c1O` gave Vaccinia mCherry -7% and Vaccinia Venus -11%.
Screening COc1cccc(C(=O)c2cn(CC(=O)NCCc3ccccc3)c3nc(C)ccc3c2=O)c1 returned Vaccinia mCherry -5% and Vaccinia Venus -4%.
For Cc1ccc(S(=O)(=O)N2CCN(C(=O)c3ccc(-n4cncn4)c([N+](=O)[O-])c3)CC2)cc1C the results were Vaccinia mCherry -33% and Vaccinia Venus -28%.
`CCOc1ccc(CCNC(=O)c2ccc3c(c2)N(Cc2ccccc2F)C(=O)c2ccccc2S3=O)cc1OCC` (configuration not stated) gave Vaccinia mCherry -20% and Vaccinia Venus -20%.

Nothing new here: 2 of the compounds above.
For Cc1ccc(S(=O)(=O)N2CCN(C(=O)c3ccc(-n4cncn4)c([N+](=O)[O-])c3)CC2)cc1C the results were Vaccinia mCherry -33% and Vaccinia Venus -28%.
`CCOc1ccc(CCNC(=O)c2ccc3c(c2)N(Cc2ccccc2F)C(=O)c2ccccc2S3=O)cc1OCC` (configuration not stated) gave Vaccinia mCherry -20% and Vaccinia Venus -20%.

Additional structures follow:
`Cc1cccc(N(CC(=O)N2CCN(c3ccc(F)cc3)CC2)S(C)(=O)=O)c1C` gave Vaccinia mCherry -9% and Vaccinia Venus -4%.
For NS(=O)(=O)c1ccc(CNC(=S)NC2CC2)cc1 the results were Vaccinia mCherry -13% and Vaccinia Venus -9%.
Cc1ccc(Cn2cccc(C(=O)Nc3cc([N+](=O)[O-])ccc3C)c2=O)cc1 was read as Vaccinia mCherry inactive and Vaccinia Venus -4%.
For CCN1/C(=C/C=C/c2oc3ccc(-c4ccccc4)cc3[n+]2CC)Oc2ccc(-c3ccccc3)cc21 the results were Vaccinia mCherry 169%[activator].
For CCOC(=O)C1(CCc2ccccc2)CCN(C(=O)CCn2cnnn2)CC1 the results were Vaccinia mCherry inactive and Vaccinia Venus -22%.
For CCOC(=O)N1CCN(C(=O)COCc2cc(-c3ccc4c(c3)OCO4)on2)CC1 the results were Vaccinia mCherry -8% and Vaccinia Venus 2%.
Screening COc1ccccc1C(=O)NNC(=O)CCN1C(=O)/C(=C\c2ccccc2)SC1=S returned Vaccinia mCherry -2% and Vaccinia Venus -4%.
Screening O=[N+]([O-])c1ccc(S(=O)(=O)CC2CSc3nc4ccccc4n32)cc1 (configuration not stated) returned Vaccinia mCherry -15% and Vaccinia Venus -17%.
For CCOc1cccc2sc(NN)nc12 the results were Vaccinia mCherry -5% and Vaccinia Venus -8%.
O=C(c1ncn(Cc2ccccc2)c1C(=O)N1CCc2ccccc2C1)N1CCc2ccccc2C1 was read as Vaccinia mCherry -27% and Vaccinia Venus -17%.
CC(C)N1CCC(N2CCN(Cc3cccc4nonc34)CC2CCO)CC1 (configuration not stated) was read as Vaccinia mCherry -12% and Vaccinia Venus 1%.
Screening O=C(CSc1nnc(-c2cccnc2)s1)Nc1ccccc1 returned Vaccinia mCherry -3% and Vaccinia Venus 5%.
`O=C(NC1CCCC1)C(c1ccsc1)N(Cc1ccco1)C(=O)Cc1cccs1` (configuration not stated) gave Vaccinia Venus -18%.
Cc1ccccc1Nc1nc(N)nc(CSc2nnc3ccccn23)n1 was read as Vaccinia mCherry -2% and Vaccinia Venus -4%.
CCCn1c(SCC(=O)NCC)nc2sc3c(c2c1=O)CCC3 was read as Vaccinia mCherry -12% and Vaccinia Venus -18%.
Screening O=C(NC1CCN(Cc2ccccc2)CC1)c1cc(Br)c(Br)[nH]1 returned Vaccinia mCherry inconclusive and Vaccinia Venus -16%.
For Cc1cc(C)nc(NC(=O)Cc2ccc(Cl)cc2)c1 the results were Vaccinia mCherry inactive and Vaccinia Venus -10%.
Screening Cc1cc(O)ccc1C1(c2ccc(O)cc2C)OC(=O)c2ccccc21 returned Vaccinia Venus -29%.
`CC(=O)c1ccc(NC(=O)CSc2nnc(-c3ccncc3)n2C2CC2)cc1` gave Vaccinia mCherry -16% and Vaccinia Venus -6%.
Cc1ccc(S(=O)(=O)NC(=O)C2(C)CCN2C(=O)CC2CCCC2)nc1 (configuration not stated) was read as Vaccinia mCherry 9% and Vaccinia Venus 7%.
Screening Cc1ccc(S(=O)(=O)NCC(C)NC(=O)CN2CCOCC2)cc1 (configuration not stated) returned Vaccinia mCherry -2% and Vaccinia Venus 12%.
C=CC[N+]1(CC#Cc2ccccc2)CCCC1 was read as Vaccinia mCherry -7% and Vaccinia Venus -25%.
CC(=O)Nc1cccc(NC(=O)C(C)N2c3cccc4cccc(c34)S2(=O)=O)c1 (configuration not stated) was read as Vaccinia mCherry -15% and Vaccinia Venus -3%.
For CCn1c(SCC(=O)c2ccc(F)cc2)nnc1-c1ccoc1C the results were Vaccinia mCherry -13% and Vaccinia Venus -8%.
CCN(C(=O)CSc1nc2ccccc2c(=O)n1-c1cccc(C)c1)C1CCS(=O)(=O)C1 (configuration not stated) was read as Vaccinia mCherry -8% and Vaccinia Venus -3%.
COCCCNC(=S)N1CCN(c2nc3ccccc3s2)CC1 was read as Vaccinia mCherry -15% and Vaccinia Venus -6%.
CC(C)(C)OC(=O)[C@H](Cc1ccccc1)NC(=O)c1nc[nH]c1C(=O)NCCCCCN was read as Vaccinia mCherry -25% and Vaccinia Venus -4%.
For CCOc1cccc2cc(C(N)=O)c(=N)oc12 the results were Vaccinia mCherry inactive and Vaccinia Venus -12%.
`COc1cccc(CNC(=O)c2ccc(NC(=O)N3CC(C)Sc4ccccc43)cc2)c1` (configuration not stated) gave Vaccinia mCherry -30% and Vaccinia Venus -26%.
`O=C(C1=C[C@@H](C2CCCCC2)C[C@@H](OCc2ccc(CO)cc2)O1)N1CCN(Cc2ccccc2)CC1` gave Vaccinia mCherry -24% and Vaccinia Venus -26%.
For Cc1nc2scc(-c3ccccc3)c2c(=O)n1N=C1C=CC(=O)C=C1 the results were Vaccinia mCherry -15% and Vaccinia Venus -7%.
COc1ccc(OCC#CCN2CC(C)OC(C)C2)cc1 (configuration not stated) was read as Vaccinia mCherry inactive and Vaccinia Venus -9%.
For Cc1ccc(S(=O)(=O)N2CCN(Cc3ccccc3C(F)(F)F)CC2)cc1 the results were Vaccinia Venus 6%.
